Compound activity deposited in PubChem BioAssay by National Center for Advancing Translational Sciences (NCATS).
PINK1 modulator = modulators of PINK1 expression. hit rate 0.2% among 410,000. Potency, µM (highest dose often 76.6 µM), for inactives: at the highest dose activation (PINK1 increase), usual class: activators. PINK1 immunofluorescence, high-content cytometry, 24 h; active = well fitted activation curve with a large enough effect; inconclusive = small, poorly fitted or top-dose-only effect; inactive = flat fitted curve, though single readings scatter; cell line not stated here;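 note: potency is the fitted concentration of half-maximal effect; % of control where 0% means no effect; nearly all actives have a fitted effect of over 65% in size; a mitochondrial uncoupler was the plate control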
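Stable cell line, 250 cells/well, 12 h attachment; compounds pinned at 5 concentrations, 24 h; CCCP control. Fixed with nuclear dye, primary antibodies 12 h at 10 degrees C, secondary plus cell stain; laser-scanning cytometer read.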
D2 agonist = agonists of human D2 dopamine receptor (beta-arrestin); P14416; DiscoveRx PathHunter D2 beta-arrestin, luminescence, 90 min; 100% = 57 uM dopamine signal; activation, % (concentration not given with the values); hit rate 0.084% among 360,000; AID 624465; in the data active = activation above about 40%; inconclusive = about 15% to 40%; inactive = below about 15%; note: compound concentration not given in the record; the text of the record calls up to 30% inactive
Target sequence (P14416 whole entry, looked up): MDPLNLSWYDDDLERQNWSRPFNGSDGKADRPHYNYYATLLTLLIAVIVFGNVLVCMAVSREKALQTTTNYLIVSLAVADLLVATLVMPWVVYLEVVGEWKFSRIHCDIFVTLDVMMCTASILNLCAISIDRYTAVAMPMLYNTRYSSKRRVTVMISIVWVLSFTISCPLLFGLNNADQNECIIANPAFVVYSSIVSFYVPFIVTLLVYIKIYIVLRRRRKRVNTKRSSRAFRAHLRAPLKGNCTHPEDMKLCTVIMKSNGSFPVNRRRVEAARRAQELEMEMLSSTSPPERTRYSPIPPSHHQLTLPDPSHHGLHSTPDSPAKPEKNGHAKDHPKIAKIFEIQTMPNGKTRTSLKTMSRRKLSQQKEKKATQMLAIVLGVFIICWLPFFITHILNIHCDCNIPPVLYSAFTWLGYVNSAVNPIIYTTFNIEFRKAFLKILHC
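DiscoveRx PathHunter D2 beta-arrestin cells (2,100/well) attached overnight, then compound-stimulated 90 min at 37 C in HBSS/10 mM HEPES/0.1% Tween-20 buffer; beta-galactosidase complementation read by luminescence after 1 h at ambient temperature. Dopamine 57 uM final (EC100) as control.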
Six1-Eya2 inh = Six1/Eya2 interaction inhibition; Q15475+O00167; AlphaScreen GST-Six1/His-Eya2 binding, biochemical; active compounds read low; control for the full effect not named in the record; activity change, % (no concentration beside the values); hit rate 0.56% among 360,000; AID 651725; in the data active = activity change below about -65%; inconclusive = about -30% to -65%; inactive = above about -30%; note: % is set by controls: 0 for no effect and ±100 for the full control effect
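AlphaScreen luminescence read after one hour at 37 °C in darkness. Pin-transferred compounds met GST-Six1 and His-Eya2 protein (5X stock 250 nM/500 nM) plus glutathione donor and Ni-chelate acceptor beads (5X, 50 ug/mL).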
TRPML1 ag = agonists of human TRPML1 channel; AID 624414; Q9GZU1; TRPML1-expressing cells, Ca2+ dye fluorescence, FDSS; host cell line not named in the record; reference of the full effect not given here; activation, % (test concentration not listed); hit rate 0.12% among 410,000; in the data active = activation above about 50%; inconclusive = about 30% to 50%; inactive = below about 30%; note: 0% is about no effect; the text of the record puts the active cut at 80%
Target sequence (Q9GZU1 whole entry, looked up): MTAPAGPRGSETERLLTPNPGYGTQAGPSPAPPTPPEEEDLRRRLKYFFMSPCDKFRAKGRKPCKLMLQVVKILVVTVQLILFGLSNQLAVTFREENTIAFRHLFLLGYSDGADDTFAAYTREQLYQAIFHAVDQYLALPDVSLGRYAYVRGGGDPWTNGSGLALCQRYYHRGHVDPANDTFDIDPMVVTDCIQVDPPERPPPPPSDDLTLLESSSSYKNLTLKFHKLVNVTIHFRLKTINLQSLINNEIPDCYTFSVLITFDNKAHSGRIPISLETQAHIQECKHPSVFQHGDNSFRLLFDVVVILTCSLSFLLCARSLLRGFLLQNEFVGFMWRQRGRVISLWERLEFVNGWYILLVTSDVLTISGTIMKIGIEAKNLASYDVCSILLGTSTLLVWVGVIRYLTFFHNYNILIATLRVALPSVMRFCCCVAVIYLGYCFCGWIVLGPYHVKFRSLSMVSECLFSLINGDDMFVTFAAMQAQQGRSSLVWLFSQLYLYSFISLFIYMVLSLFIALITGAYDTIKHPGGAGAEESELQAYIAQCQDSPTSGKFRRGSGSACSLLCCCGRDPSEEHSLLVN
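Agonist activity was taken from a 110 s kinetic Ca2+ dye read on the FDSS after pinning compounds onto TRPML1-DL cells. The cells were seeded at 1,500/well with Tet inducer, incubated about 16 h, then dye-loaded at room temperature.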
CtBP-E1A inh = blocks the CtBP interaction with E1A | hit rate 0.49% among 340,000 | AlphaScreen GST-E1A/His-CtBP binding, 1536-well; active compounds read low; control for the full effect not named in the record | activity change, % (test concentration not listed); in the data active means activity change below about -65%; inconclusive means about -30% to -65%; inactive means above about -30%; note: % is set by controls: 0 for no effect and ±100 for the full control effect
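In 5 uL wells, 23 nL compound meets equimolar GST-E1A and His-CtBP (5X stock 125 nM each) for 2 h, 37 °C. Beads (5X, 50 ug/mL) then 1 h, 37 °C, dark.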
TRPML1 inh = inhibitors of human TRPML1 channel; Q9GZU1; TRPML1-inducible cells, Ca2+ dye fluorescence, FDSS; active compounds read low; inhibition of EC80 agonist-evoked calcium signal; activity change, negative = inhibition, % (no concentration beside the values); hit rate 0.02% among 390,000; in the data active means activity change below about -50%; inconclusive means about -30% to -50%; inactive means above about -30%;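 note: stimulus is agonist 54-4 at its EC80 concentration; % is set by controls: 0 for no effect and ±100 for the full control effect; compound concentration not given in the record; the text of the record puts the active cut at -80%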
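Calcium fluorescence in TRPML1-DL cells induced overnight with Tet: a 110 s read after compound pin addition, then a 110 s antagonist read after challenge with 54-4 at 4 uM final (EC80).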
Starred values were filed as active, the others as inactive; ? = inconclusive; . = no result given; & = joins results of further samples; [ ] = dose if it differs, or a comment.

SMILES	PINK1 modulator	D2 agonist	Six1-Eya2 inh	TRPML1 ag	CtBP-E1A inh	TRPML1 inh
CSc1ncccc1C(=O)Nc1nc2ccc(S(C)(=O)=O)cc2s1	-0.7%	-1.4	-7	-0.2	-1	2
CC(=O)Oc1cccc(C2C3=C(CC(C)(C)CC3=O)Nc3ccccc3N2C(C)=O)c1 (centres undefined)	-0.3%	11	-1	0.4	0	-2
CCOc1cc(NCCN2CCOCC2)c([N+](=O)[O-])cc1OCC	0.1%	-0.8	-2	0.5	-9	23
O=C(NN=C1CCCC1)C(=O)Nc1cccc(C(F)(F)F)c1	0.7%	-2.2	-1	-0.6	5	21
O=C(/C=C/c1ccccc1)NC(=S)Nc1ccccc1	2.4%	2.0	-7	-0.2	-30	-12
CCOC(=O)Nc1ccc(S(=O)(=O)NCc2ccccc2)cc1	-3.3%[38.3 µM]	2.0	7	0.7	3	4
CCCC1(CCC)C(=O)NC(=NCCc2ccc(OC)c(OC)c2)NC1=O	1.2%	-3.3	-4	1.0	5	11
COc1ccc(C2CC(=O)N(CC(=O)Nc3ccc(C(C)=O)cc3)c3ccccc3S2)cc1OC (centres undefined)	-1.2%	.	.	4.6	.	18
Cc1ccc(C(=O)O)cc1NC(=S)NCCc1ccccc1	-0.7%	-2.0	6	0.3	6	-4
COc1ccc(OCC(=O)Nc2cc(C)c(Cl)cc2OC)c([N+](=O)[O-])c1	-0.4%	-2.4	11	0.5	2	12
Cc1cc(N2CCN(C)CC2)nc2ccc(NC(=O)CCC(=O)NCCc3ccc(Cl)cc3)cc12	0.3%	0.7	5	0.2	-3	2
COc1cc(/C=C2\SC(=S)N(c3cccnc3)C2=O)ccc1O	1.3%	-15	-13	13	-11	27
CC1(C(=O)Nc2ccc3c(c2)OCO3)CCN1C(=O)Cc1ccc(-c2ccccc2)cc1 (centres undefined)	0.1%	-3.8	?	-0.2	?	.
O=C(Nc1cccc([N+](=O)[O-])c1)NC1CCCCCCC1	?	-3.7	-1	0.7	1	-9
O=S(=O)(c1ccc(OCC(O)CN2CCN(c3ccccc3)CC2)cc1)N1CCOCC1 (centres undefined)	2.2%[38.3 µM]	44*	-8	-0.3	1	10
Cc1cc(S(=O)(=O)N2CCCC2)ccc1OCC(=O)Nc1ccccc1	1.5%	-0.7	-2	1.1	0	14
Cc1cc(C)cc(N2CCn3c2nc2c3c(=O)n(Cc3ccc(Cl)cc3)c(=O)n2C)c1	-1.6%	.	.	1.3	.	-15
Cc1ccc(C(CNS(=O)(=O)c2ccc([N+](=O)[O-])cc2)N2CCN(C)CC2)cc1 (centres undefined)	-0.8%	-1.5	8	0.4	-14	11
N#Cc1ccsc1NC(=O)COC(=O)c1cc2ccccc2cc1O	1.7%	-3.5	1	-1.3	3	-4
COc1ccc(CN([C@H](CO)CC(C)C)S(=O)(=O)N(Cc2ccccc2)[C@H](CO)CC(C)C)cc1	0.2%	1.2	-22	1.6&1.4	4	13
COc1ccc(-c2c(-c3ccccc3)n(C)c3ccccc23)cc1	0.5%	-1.2	-24	1.2	-16	21
CCOC(=O)c1nsnc1NCCSC(=N)N	2.5%	-7.8	-1	0.2	.	-3
CC/C(=N/N=C(\CC)c1ccccc1)c1ccccc1	?	0.9	24	1.1	23	-9
CC12CC(NC(=O)N1CCc1ccccc1)c1cc(Cl)ccc1O2 (centres undefined)	7.1%	-0.2	2	5.0	6	0
Cc1nn(Cc2ccc(Cl)c(Cl)c2)c(C)c1NC(=O)c1sc2ccccc2c1Cl	8.9%	0.4	-3	0.9	4	14

Additional structures follow:
SMILES	PINK1 modulator	D2 agonist	Six1-Eya2 inh	TRPML1 ag	CtBP-E1A inh	TRPML1 inh
C1=C(c2cn(-c3nc4ccccc4s3)nn2)CCCC1	1.2%	.	11	0.0	6	.
Cc1cccc(Oc2cnn(C(C)(C)C)c(=O)c2Cl)c1	4.5%	-4.6	7	1.5	6	-4
O=C1CC(C(F)(F)C(F)(F)C(F)(F)C(F)(F)F)=Nc2ccccc2N1	12%	-4.3	0	-0.3	-7	-4
CCCCNS(=O)(=O)c1ccc2nc(-c3cccnc3)cc(C(=O)NC(C)C)c2c1	5.7%&2.1%	0.3	2	0.4&0.2	6	3&-6
Cn1c2ccccc2c(=O)c2c(O)cccc21	-0.8%	-2.5	-9	-0.4	-23	-8
O=C(Cn1c(Cn2c(-c3cnccn3)nc3ccccc32)nc2ccccc21)c1ccc(OC(F)(F)F)cc1	14%	.	0	1.7	-1	.
CN(N)C(=S)Nc1ccc(Cl)cc1	-0.1%	1.8	1	0.3	0	11
CC(C)Sc1nnc(NC(=O)C2CC2)s1	0.9%	-4.0	13	-0.5	1	-6
Cc1cccnc1NC(=O)c1cccc(S(=O)(=O)NCc2ccccc2)c1	4.0%	-2.2	-4	-1.1	10	-5
COc1ccc2c(c1)c1ncn(CCN3CCCC3)c(=O)c1n2C	16%[38.3 µM]	-2.8	-17	-0.7	-13	-8
CCC(C)(C)n1nnnc1C(c1cc2cc(C)ccc2[nH]c1=O)N1CCCC1 (centres undefined)	3.2%[38.3 µM]	1.9	-5	0.0	-2	-2
Cc1cc(C)n2nc(C(=O)OCC(=O)N(C)C3CCCCC3)nc2n1	-0.3%	-1.8	-10	0.3	-3	7
CCc1nnc(SCC(=O)Nc2nc(C)c(C(=O)N(C)C)s2)n1CC	0.8%	-0.7	1	0.7	11	-8
CO/N=C/c1cccn1-c1nccc(N(C)C)c1C#N	0.5%	1.2	17	0.3	-20	-3
CC(C)CC(=O)N1CCN(c2ccc(NC(=O)c3ccco3)cc2)CC1	0.3%	-4.1	-2	0.3	10	16
COC(CCN(C)C)(c1ccccc1)c1ccccc1	.	-0.5	3	0.2	5	1
CCCCNC(=O)CCCn1c(=S)[nH]c2cc3c(cc2c1=O)OCO3	0.5%[38.3 µM]	-1.0	-2	0.0	0	-4
CCOc1cc(S(=O)(=O)n2nc(C)cc2C)ccc1Br	2.5%	3.7	4	1.5	.	-12
COc1ccccc1NC(=S)N(CCCN1CCOCC1)Cc1ccccn1	0.6%	-0.5	2	-0.7	13	-6
NC(=S)NC(=O)c1ccccc1	3.5%	-2.2	5	-0.2	0	5
COc1ccc(-n2nc(-c3ccc(C)cc3)c3cnc4cc(F)c(F)cc4c32)cc1	4.1%	.	.	0.8	.	12
Cc1ccc(-c2nc(=S)c3c(n2CC2CCCO2)CC(C)(C)OC3)cc1 (centres undefined)	1.4%[38.3 µM]	-1.0	4	-0.7	11	-2
O=C(CC1CCCCC1)c1c(O)c2ccccc2oc1=O	-6.2%[38.3 µM]	-0.4	-10	1.8	-2	16
O=S(=O)(/N=C(/c1ccccc1)N1CCOCC1)c1ccc(Br)cc1	0.4%	-2.7	2	0.1	0	-14
OCC1C2c3ccccc3C(c3ccccc32)C1CO (centres undefined)	1.5%	-4.6	1	0.4	3	-1

Remaining list, next part:
SMILES	PINK1 modulator	D2 agonist	Six1-Eya2 inh	TRPML1 ag	CtBP-E1A inh	TRPML1 inh
O=C(/C=C/c1ccccc1)N1CCN(c2cccc(Cl)n2)CC1	14%[38.3 µM]	-4.7	-3	0.6	-1	-9
CCOC(=O)NNC1CC(=O)N(c2ccc(OC)cc2)C1=O (centres undefined)	8.8%[38.3 µM]	0.2	5	0.6	-2	20
CON(C)S(=O)(=O)c1cccc(C(=O)NC2CCSc3ccccc32)c1 (centres undefined)	0.3%	3.3	-1	1.1	0	17
CC(=O)NS(=O)(=O)c1ccc(NC(=O)NC2CCCCC2)cc1	0.4%	-3.1	4	-0.9	2	-8
O=C(O)C[C@H]1c2ccccc2S(=O)(=O)N1C1CCCCC1	23%	-2.6	-1	-0.1&-0.2	9	25
COc1ccc(CCNC(=O)c2ccc(Cn3c(=O)c4ccccc4n(Cc4cccc(F)c4)c3=O)cc2)cc1OC	2.3%	.	.	3.1	.	-7
CC1CCCN(S(=O)(=O)c2ccc(NC(=O)CN3CCCCC3)cc2)C1 (centres undefined)	3.6%	-3.8	5	0.2	-9	-14
O=C(NCc1ccccc1)C1=C[C@H](c2ccc(C(F)(F)F)cc2)C[C@H](OCc2ccc(CO)cc2)O1	4.6%	-3.2	-5	0.6	-5	4
O=C(NC1CC1)C1=C[C@H](c2c[nH]c3ccccc23)C[C@H](OCc2ccc(CO)cc2)O1	3.4%	1.7	-3	1.0	-24	10
CN(C)CCCC(C)(O)C(C)(C)c1ccccc1 (centres undefined)	-0.2%	-3.7	8	0.9	7	12
CCn1c(=O)cc(OCC(=O)Nc2cc(OC)c(OC)c(OC)c2)c2ccccc21	3.0%	.	.	0.4	.	-28
CCN(CC)CCNC(=O)C1CCCCN1S(=O)(=O)c1cccc([N+](=O)[O-])c1 (centres undefined)	-0.9%	-0.3	1	0.2	3	-9
Clc1ccc2nc(-c3ccc(Cl)nc3)[nH]c2c1	-0.4%	0.5	9	-0.3	-12	-14
Cc1ccc(CNC(=O)CSCc2ccccc2)cc1	-0.7%	2.7	7	1.2	.	1
COc1cc2c(cc1OC)/C(=C/C(=O)c1cccc([N+](=O)[O-])c1)NCC2	6.1%	3.0	-25	1.1	-15	-2
Fc1ccccc1Cc1noc(CN2CCN(c3ccc(Cl)cn3)CC2)n1	5.0%	-3.4	15	1.2	10	-3
NC(=O)Cn1cc(/C=N/NC(=O)c2ccc(Cn3cc(Cl)cn3)o2)c(-c2ccccc2)n1	1.5%	-2.1	0	0.7	-1	20
CCNC(=O)CC1C(=O)N(c2ccccc2)C(=O)N1Cc1ccc(F)cc1 (centres undefined)	1.2%	.	.	-0.1	.	5
CN(C)C(=O)c1cn(-c2ccccc2)nc1-c1cccs1	-2.8%	-0.7	0	-0.2	-4	-6
COc1ccc(-c2cc(C(=O)Nc3c(F)cc(F)cc3Br)no2)cc1	-0.3%	1.1	6	2.2	.	35
O=C(CN1CCN(c2ccccn2)CC1)Nc1ccc([N+](=O)[O-])cc1C(=O)Nc1ccccc1F	-0.1%	3.8	-17	0.1	-18	-9
CCCOc1ccc(CNC(=O)c2ccc3c(c2)N(CC)CCS3)cc1	3.0%	-3.0	-15	0.0	-11	3
CON(C)C(=O)/C=C/c1ccc([B-](F)(F)F)cc1	-0.1%	-0.4	33	1.2	1	-3
COc1ccc(/C(N)=N/OC(=O)CCC2CCCC2)cc1	3.4%	-0.8	43	0.9	59	22

In another format: results already given.
SMILES,PINK1 modulator,D2 agonist,Six1-Eya2 inh,TRPML1 ag,CtBP-E1A inh,TRPML1 inh
CCOC(=O)NNC1CC(=O)N(c2ccc(OC)cc2)C1=O (centres undefined),8.8%[38.3 µM],0.2,5,0.6,-2,20
Fc1ccccc1Cc1noc(CN2CCN(c3ccc(Cl)cn3)CC2)n1,5.0%,-3.4,15,1.2,10,-3
O=C(O)C[C@H]1c2ccccc2S(=O)(=O)N1C1CCCCC1,23%,-2.6,-1,-0.1&-0.2,9,25
Clc1ccc2nc(-c3ccc(Cl)nc3)[nH]c2c1,-0.4%,0.5,9,-0.3,-12,-14
CN(C)C(=O)c1cn(-c2ccccc2)nc1-c1cccs1,-2.8%,-0.7,0,-0.2,-4,-6
